# Compound activity (PubChem)
# Sa growth inh: S. aureus growth inhibition at 42 and 30 °C, primary screen, LtaS inhibitor project, RN4220, two temperatures | OD600, 20 h, 42 °C; stronger effect = lower value | relative growth, % (concentration not given with the values) | 170,000 compounds, 0.53% hits | AID 720641, 2013;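 active = growth at 42 °C up to 50% and 20 or more points under that at 30 °C, or under 10% at both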;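 note: 300 nL library stock went into each well; scaled to the means of positive and negative controls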
# GIV-Gai inh: inhibitors of GIV peptide binding to Galpha-i3, primary screen, biochemical, fluorescence polarization, FITC-GIV GBA peptide, rat Galphai3. Guanine nucleotide-binding protein G(i) subunit alpha-3 (Rattus norvegicus), P08753. 90 min; stronger effect = lower value; scaled: aluminum fluoride 0%, vehicle 100%. percent of control (FP), % (no concentration beside the values). 210,000 compounds, 0.42% hits;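 active = replicate mean at 85% of control or lower, very high polarization wells dropped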;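 note: wells of about 15 µL received 100 nL stock; the first replicate is given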
# Target sequence (P08753 whole entry, looked up): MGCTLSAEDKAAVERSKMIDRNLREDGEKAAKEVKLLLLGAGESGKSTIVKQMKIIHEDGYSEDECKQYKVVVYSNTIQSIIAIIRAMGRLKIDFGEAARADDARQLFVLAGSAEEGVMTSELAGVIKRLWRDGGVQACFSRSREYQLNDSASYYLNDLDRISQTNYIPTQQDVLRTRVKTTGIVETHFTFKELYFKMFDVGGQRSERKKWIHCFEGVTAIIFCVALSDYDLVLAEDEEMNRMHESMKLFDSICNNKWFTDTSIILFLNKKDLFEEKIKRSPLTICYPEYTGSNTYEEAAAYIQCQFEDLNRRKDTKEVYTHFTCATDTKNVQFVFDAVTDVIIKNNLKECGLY
# HCMV UL50-53 inh: inhibitors of HCMV UL50-UL53 interaction, biochemical, HTRF; 190,000 compounds, 0.15% hits; inhibition, % (no concentration beside the values); normalized percent inhibition; HCMV UL50-UL53 nuclear egress complex (human cytomegalovirus);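 active = both replicates at 50% or more, plus weaker picks with an unusually low signal ratio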;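 note: stock transfer was 100 nL into about 20 µL; 0% = negative control wells and 100% = wells with untagged competitor protein; inactives centre near -12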
# Sa growth inh second temp: further read-out of Sa growth inh, marked with its call; relative growth, %; measured here: growth at 30 °C;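 optical density after 20 h as mean of two plates; 100% = untreated growth and lower means inhibition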
# * hit, by the source's call; nt = no result given; & = joins results of further samples.
SMILES,Sa growth inh,Sa growth inh second temp,GIV-Gai inh,HCMV UL50-53 inh
CCCCOC(=O)c1ccc(NC(=O)CSc2nc3c(c(=O)[nH]2)CCCC3)cc1,107,87,98,-13
Cc1noc(/C=C/N(C)C)c1S(=O)(=O)N1CCCC(C(=O)NC2CCCCC2)C1 (stereo not drawn),98,95,101,nt
Cc1cccc(NC(=O)CSc2nc3ccccc3c3nc(CCn4cncc4C)nn23)c1,99,92,104,nt
CCOC(=O)N1CCc2c(sc3c2c(=O)n(Cc2ccccc2)c(=O)n3CC(=O)Nc2cccc(C)c2)C1,101,88,102,-21
CCCNC(=O)CSc1c2c(nc3ccc(Cl)cc13)CCCC2,93,86,103&102,-33&-14
N#CC(C(=O)CN1CCN(c2ccccc2)CC1)c1ccccc1 (stereo not drawn),127,84,105,-10
COC(=O)CN(c1nc(C)cc(OC)n1)S(=O)(=O)c1ccccc1,nt,nt,101,-16
COc1ccc(C2NC(=O)N(C)C3=C2C(=O)N(c2cccc(Cl)c2)C3)cc1 (stereo not drawn),109,89,101,-16
N#Cc1ccc(-c2cc(C(F)(F)F)ccc2Cl)o1,86,89,nt,-18
CC1CCN(c2cc(C(=O)O)c3cc(NC(=O)c4cccc(Cl)c4)ccc3n2)CC1,nt,nt,110,-20
O=C(OCC(=O)N1CCCC1)c1ccc(S(=O)(=O)Nc2ccccc2)cc1,95,96,nt,-15
COc1ccc(S(=O)(=O)Nc2nc(O)c(C3=c4cc(Cl)ccc4=NC3=O)s2)cc1,nt,nt,102,-22
c1ccc(-c2nc3nc4c(c(Nc5ccc6c(c5)OCCO6)n3n2)CCCC4)cc1,nt,nt,103,0
Fc1ccccc1-c1noc(NCC2CCCO2)n1 (stereo not drawn),99,92,102&99,-10&13
O=C(NCc1ccc2c(c1)OCO2)C1CCN(c2nccn3nc(-c4ccccc4)cc23)CC1,nt,nt,114,-5
COCCn1cnc2c1c(=O)n(CC(=O)NC(=O)NC1CCCC1)c(=O)n2Cc1ccccc1,96,89,nt,-13
S=C(Nc1ccccc1)Nn1cnnc1,83,81,97,-2
CC(=O)Nc1cc(C(=O)N2CC=C(c3ccccc3)CC2)ccc1Sc1ccc(Cl)cc1,119,83,104,nt
Cc1ccnc(N(C(=O)c2nn(C)c3c2COc2ccccc2-3)C(=O)c2nn(C)c3c2COc2ccccc2-3)c1,99,101,108,3
COc1ccc(S(=O)(=O)c2cc(NS(=O)(=O)c3ccc(Cl)cc3)c(C)c(C)c2O)cc1,100,85,102,-14
CCOCCCN(Cc1ccco1)C(=O)c1cc2c(=O)[nH]c3ccc(C)cc3c2s1,88,96,109,-12
O=C(NCc1ccc(-c2ccc(F)cc2F)o1)c1ccccc1,103,96,99,-15
Cc1nn(CC(O)CN2c3ccccc3Sc3ccccc32)c(C)c1Br (stereo not drawn),83,32,103,-16
N#CCCS(=O)(=O)c1ccc(Br)cc1,120,100,98,-5
Cc1ccc(OCCn2c(-c3ccc(Cl)cc3)nc3ccccc3c2=O)c(C)c1,101,97,102,-18
CCN(CC)c1ccc(-c2nc(-c3ccncc3)no2)cc1[N+](=O)[O-],103,84,96,-28
Cc1ccc2c(c1)c1c(c(=O)n(-c3ccccc3C)c(=O)n1CC(=O)NCCC1=CCCCC1)n2C,104,88,106,nt
O=C(Cn1cnc2c(oc3ccccc32)c1=O)N1CCCC1c1ccc2c(c1)OCCCO2 (stereo not drawn),91,97,nt,-6
Cc1ccc(CN2C(=O)N(c3ccccc3)C(=O)C2CC(=O)Nc2ccccc2)cc1 (stereo not drawn),107,87,103,-9
COc1ccc(NC(=O)NC(C)C2CCCO2)c(OC)c1 (stereo not drawn),83,94,99,-13

# One compound at a time (already shown). Screens in order: Sa growth inh	Sa growth inh second temp	GIV-Gai inh	HCMV UL50-53 inh
# Record of `Cc1ccc2c(c1)c1c(c(=O)n(-c3ccccc3C)c(=O)n1CC(=O)NCCC1=CCCCC1)n2C` → 104	88	106	nt
# Record of `O=C(NCc1ccc(-c2ccc(F)cc2F)o1)c1ccccc1` → 103	96	99	-15

# Continuation.
SMILES,Sa growth inh,Sa growth inh second temp,GIV-Gai inh,HCMV UL50-53 inh
CC1CN(C(=O)c2ccc(NC(=O)c3ncoc3-c3ccc4ccccc4c3)cc2)CC(C)O1 (stereo not drawn),92,88,100,-9
O=C(NC(Cc1c[nH]c2ccccc12)C(=O)NNC1=NCCC1)c1ccccc1 (stereo not drawn),84,90,nt,-27
O=c1cc(CN2CCN(S(=O)(=O)c3ccccc3)CC2)nc2sc(-c3ccccc3Cl)nn12,92,86,99,nt
Clc1ccc(-n2ccnc2Sc2ncnc3sc4c(c23)CCCC4)cc1,97,91,nt,6
N#Cc1ccc(Cl)cc1NC(=O)COC(=O)CSc1ncnc2sccc12,86,83,nt,-1
Cc1cccc(C)c1Nc1c(-c2ccsc2)nc2ccc(Cl)cn12,110,79,102,-2
CC(Oc1ccccc1)c1ccn[nH]1 (stereo not drawn),nt,nt,107,-10
C=CCn1c(N)cc(=O)nc1SCC(=O)OC1CC2CCC1(C)C2(C)C (stereo not drawn),125,75,109,-7
COc1ccc(C2SCC(C(=O)NC(C)C)N2C(=O)Nc2ccc(C)c(C)c2)cc1 (stereo not drawn),101,89,96,nt
N=c1scc(-c2ccccc2)n1-c1cc(C(F)(F)F)ccc1N1CCOCC1,113,88,102,nt
CCOC(=O)C1C(=O)Oc2ccc3ccccc3c2C1C1CCOC1=O (stereo not drawn),102,78,100,nt
CCOC(=O)c1[nH]c(CN2CCN(c3ccc(OC)cc3)CC2)c(C(=O)OCC)c1C,67,88,nt,-22
N#Cc1c(-c2cccs2)cc(-c2ccccc2)[nH]c1=O,112,90,101,37
O=C(Cc1csc2nc(-c3ccccc3)cn12)NCc1ccccc1,nt,nt,100,-10
O=C(/C=C/c1ccccc1)Nc1nc(-c2ccccc2)cs1,109,99,nt,6
COC(=O)c1cc2sccc2n1Cc1nc(-c2cccc(Cl)c2)oc1C,132,94,103,-34
CCc1ccc(OCC(O)Cn2c(C3CC3)nc3ccccc32)cc1 (stereo not drawn),nt,nt,102,-26
COc1ccc(NC(=O)c2ccc(-n3nc(Sc4ccc(F)cc4)ccc3=O)cc2)c(OC)c1,nt,nt,104,-61
CC1c2ccsc2CCN1C(=O)c1cccs1 (stereo not drawn),89,80,95,-9
O=C1S/C(=C\c2ccc(F)cc2)C(=O)N1c1ccccc1,105,77,106,0
CCOC(=O)CC(=O)Nc1ccn[nH]1,96,91,105,3
Cc1cccc(NC(=O)CSc2cn(CC(=O)N3CCOCC3)c3ccccc23)c1C,132,85,108,nt
CC(C)N(Cc1nc2ccccc2[nH]1)C(C)C,105,103,100,8
COC(=O)c1ccccc1NC(=O)C1=C(C)C(=O)OC12CCC(C)CC2 (stereo not drawn),92,91,107,-32
Cc1ccc(CSc2oc(-c3ccco3)nc2S(=O)(=O)c2ccc(Br)cc2)cc1,97,92,100,-12
Cc1ccc2nc(-c3ccc(C)c(NC(=O)c4ccc5c(c4)OCCO5)c3)oc2c1,nt,nt,104,-17
Cc1c(NS(=O)(=O)c2ccc(Cl)c(C(=O)OC(C)C(=O)N3CCOCC3)c2)c(=O)n(-c2ccccc2)n1C (stereo not drawn),100,88,nt,-14
Cc1cc(C)c2c(=O)cc(C(=O)NCCc3ccc(S(N)(=O)=O)cc3)oc2c1,105,87,102,-20
O=C(CSc1ncnc2c1nnn2Cc1ccccc1)NCc1ccccc1,104,88,103,nt
Cc1c(C)n(Cc2ccccc2)c2ccc(C(=O)Nc3ncn[nH]3)cc12,110,96,nt,0

# 17 of these compounds, set out differently.
structure | Sa growth inh | Sa growth inh second temp | GIV-Gai inh | HCMV UL50-53 inh
CCOC(=O)C1C(=O)Oc2ccc3ccccc3c2C1C1CCOC1=O (stereo not drawn) | 102 | 78 | 100 | nt
CCOC(=O)c1[nH]c(CN2CCN(c3ccc(OC)cc3)CC2)c(C(=O)OCC)c1C | 67 | 88 | nt | -22
N#Cc1c(-c2cccs2)cc(-c2ccccc2)[nH]c1=O | 112 | 90 | 101 | 37
O=C(Cc1csc2nc(-c3ccccc3)cn12)NCc1ccccc1 | nt | nt | 100 | -10
O=C(/C=C/c1ccccc1)Nc1nc(-c2ccccc2)cs1 | 109 | 99 | nt | 6
COC(=O)c1cc2sccc2n1Cc1nc(-c2cccc(Cl)c2)oc1C | 132 | 94 | 103 | -34
CCc1ccc(OCC(O)Cn2c(C3CC3)nc3ccccc32)cc1 (stereo not drawn) | nt | nt | 102 | -26
COc1ccc(NC(=O)c2ccc(-n3nc(Sc4ccc(F)cc4)ccc3=O)cc2)c(OC)c1 | nt | nt | 104 | -61
CC1c2ccsc2CCN1C(=O)c1cccs1 (stereo not drawn) | 89 | 80 | 95 | -9
O=C1S/C(=C\c2ccc(F)cc2)C(=O)N1c1ccccc1 | 105 | 77 | 106 | 0
CCOC(=O)CC(=O)Nc1ccn[nH]1 | 96 | 91 | 105 | 3
Cc1cccc(NC(=O)CSc2cn(CC(=O)N3CCOCC3)c3ccccc23)c1C | 132 | 85 | 108 | nt
CC(C)N(Cc1nc2ccccc2[nH]1)C(C)C | 105 | 103 | 100 | 8
COC(=O)c1ccccc1NC(=O)C1=C(C)C(=O)OC12CCC(C)CC2 (stereo not drawn) | 92 | 91 | 107 | -32
Cc1ccc(CSc2oc(-c3ccco3)nc2S(=O)(=O)c2ccc(Br)cc2)cc1 | 97 | 92 | 100 | -12
Cc1ccc2nc(-c3ccc(C)c(NC(=O)c4ccc5c(c4)OCCO5)c3)oc2c1 | nt | nt | 104 | -17
Cc1c(NS(=O)(=O)c2ccc(Cl)c(C(=O)OC(C)C(=O)N3CCOCC3)c2)c(=O)n(-c2ccccc2)n1C (stereo not drawn) | 100 | 88 | nt | -14

# Additional results follow:
SMILES,Sa growth inh,Sa growth inh second temp,GIV-Gai inh,HCMV UL50-53 inh
NNc1nc2ccccc2c(=O)n1Cc1ccccc1,94,71,99,-1
CC(=O)N1CCc2cc(C(O)CN3CCN(C4CCCCC4)CC3)ccc21 (stereo not drawn),109,101,103&103,0
Clc1ccc(-c2nccc(-c3cc(-c4ccccc4)no3)n2)cc1,100,101,98,0
C/C(N)=C(/C#N)C(=O)CSc1nc(-c2ccc(C)c(C)c2)cn1-c1ccccc1,85,80,nt,-3
O=C(NC1CCCCC1)N1CCc2cc(S(=O)(=O)NC3CCCC3)ccc21,nt,nt,101,13
C=CCn1cnc2scc(-c3ccc(OC)cc3)c2c1=O,105,83,nt,-9
Cc1ccc(C2=NN(C(=O)CN3CCC(C)CC3)C(c3ccco3)C2)cc1 (stereo not drawn),118,85,101,-55
Cc1ccccc1NC(=O)Cc1c(C)nn(C(C)C(=O)Nc2ccccc2C)c1C (stereo not drawn),nt,nt,98,5
COc1ccccc1C1/C(=C(\O)c2ccc(Cl)cc2)C(=O)C(=O)N1CCC(=O)O (stereo not drawn),86,87,98,-39
Cc1c(Cc2ccccc2)sc(/N=C/c2ccc3ccccc3c2)c1C(N)=O,96,98,nt,-1
Cc1ccc(NC(=O)CC2Oc3ccc(C)cc3NC2=O)cc1 (stereo not drawn),96,84,102,-2
O=C(O)c1cc(-c2ccccc2)c(C(=O)O)cn1,98,92,nt,-13
Cc1ccc(Cl)cc1N1CCN(S(=O)(=O)c2ccc3c(c2)C(C(C)C)C(=O)N3)CC1 (stereo not drawn),81,45,102,nt
Cc1cccc2c1-c1sc(C(=O)N3CCN(c4cccc(Cl)c4)CC3)cc1CO2,106,87,105,-32
O=C1C2=C(c3ccccc3)c3cc(F)ccc3C2Sc2ccccc21 (stereo not drawn),101,100,103,16
CSc1ncc(C(=O)NC2CCN(Cc3ccccc3)CC2)c(C(F)(F)F)n1,94,96,107,-13
CC(C)c1cc(NC(=O)COC(=O)c2ccccc2Oc2ccccc2)on1,113,91,nt,-22
CCC(O)c1cc2c(cc1NC(=O)c1ccccc1F)OCCO2 (stereo not drawn),96,96,108,nt
CCN(CC)S(=O)(=O)c1ccc(N=NC2=C(O)CCCC2=O)cc1,106,70,nt,-142
NC(=O)CSc1nc2c(sc3ccccc32)c(=O)n1CCO,103,82,102,2
CCCCC(CC)CNC(=O)c1ccc2c(=O)n(Cc3ccc(OC)cc3)c(=O)[nH]c2c1 (stereo not drawn),103,98,108,-18
Cn1cc(C(=O)Nc2ccc(F)c(Cl)c2)c2[nH]c(=O)n(-c3ccc(Cl)cc3)c(=O)c21,nt,nt,100,-10
O=C(COC(=O)C(c1ccccc1)c1ccccc1)NC1CCCCC1,104,94,nt,-16
CCCS(=O)(=O)NCc1cn2ccc(C)cc2n1,92,80,104,-5
CCOc1ccc2nc(SCc3ccc(C#N)cc3)[nH]c2c1,110,87,nt,-4
CCOC(=O)c1c(C)[nH]c(C(=O)N2CCCC(C(=O)NCCCN3CCN(CC)CC3)C2)c1C (stereo not drawn),nt,nt,95,-7
CCN(CC)S(=O)(=O)c1ccccc1/C=N/O,134,90,nt,-8
COc1ccc(C)cc1S(=O)(=O)Nc1cccc(N2CCCS2(=O)=O)c1,nt,nt,97,-2
Cc1ccc(CS(=O)(=O)c2ncc(Cl)c(C(=O)Nc3nnc(C(C)C)s3)n2)cc1,5.6*,23*,99,-42
